Screening data from PubChem BioAssay.
AmpC inh no det = inhibitors of E. coli AmpC beta-lactamase without detergent | P00811 | AmpC nitrocefin hydrolysis, absorbance 480 nm, no detergent; potencies from a single point are estimates | Potency, µM (top dose mostly 28.7 µM), inactives show at the highest dose activity change, negative = inhibition | 71,000 compounds, 1.8% hits; active = falling curve, for most hits resting on a single point; inconclusive = weak or doubtful change; inactive = flat or rising curve; also: % of control where 0% means no effect; about half of the hits show no inhibition at the top dose; a quarter of the inactives give rising signals
Target sequence (P00811 whole entry, looked up): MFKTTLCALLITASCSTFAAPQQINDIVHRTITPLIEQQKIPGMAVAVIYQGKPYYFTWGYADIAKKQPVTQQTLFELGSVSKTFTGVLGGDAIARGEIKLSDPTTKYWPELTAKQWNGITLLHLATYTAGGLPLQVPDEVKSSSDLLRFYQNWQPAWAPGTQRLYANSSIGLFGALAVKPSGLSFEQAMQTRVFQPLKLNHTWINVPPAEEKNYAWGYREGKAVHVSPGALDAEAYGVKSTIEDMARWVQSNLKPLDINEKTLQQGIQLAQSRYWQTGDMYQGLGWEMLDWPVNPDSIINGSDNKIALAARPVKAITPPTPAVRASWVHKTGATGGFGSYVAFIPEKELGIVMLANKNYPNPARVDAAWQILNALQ
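AmpC in 20 mM phosphate buffer pH 7.0 was preincubated 15 min at room temperature with compounds. Nitrocefin (800 uM stock) was then added and hydrolysis followed at 480 nm every 20 s for 4 min.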
Active calls of the source: *; ? = inconclusive; & = joins results of further samples; [ ] = another dose, or the depositor's remark. Potency is read from the fitted curve at half-maximal effect. Only part of the results is shown (hit frequency here may not be typical).

compound | AmpC inh no det
O=C(O)C1CC=CCC1C(=O)NCc1ccccc1 (stereo unspecified) | 12%
COC(=O)c1ccc(-n2nnnc2SCc2nn[nH]n2)cc1 | -14%
O=C(CCn1c(=O)oc2ccccc21)Nc1ccccc1 | -3%
Cn1c(NC(=O)c2ccccc2NC(=O)C(C)(C)C)nc2ccccc21 | 64%
Cc1cccc(OCC(O)Cn2c(=N)n(CCN3CCOCC3)c3ccccc32)c1 (stereo unspecified) | 32%
COc1ccc(Cc2nnc(NC(=O)C3CCCO3)s2)cc1 (stereo unspecified) | 23%
CCOC(=O)c1[nH]c(C)c(C(=O)N2CCOCC2)c1C | -14%
Cc1ccc(S(=O)(=O)N(CC(=O)O)Cc2ccccc2F)cc1 | 7%
CCOc1ccc(C(=O)Nc2ccc(NC(=O)c3ccco3)c(Cl)c2)cc1Br | ?
O=C(CSc1nc2ccccc2s1)NCCCN1CCOCC1 | -3%
Cc1occc1-c1nnc(SCC(=O)Nc2ccccc2)n1C(C)c1ccccc1 (stereo unspecified) | 19%
Cc1[nH]nc(N=CC2=C(O)CC(C)(C)CC2=O)c1-c1ccccc1 | 54%
CCOC(=O)C1CCN(c2c(NCc3ccc(C(=O)NCCC(C)C)cc3)c(=O)c2=O)CC1 | 32%
C=CCSc1nncn1/N=C/c1ccc(OC)cc1 | 59%
COCCn1c(=N)c(C(=O)NCCc2ccccc2)cc2c(=O)n3cccc(C)c3nc21 | 4%
CCOC(=O)Nc1ccc2c(c1)N(C(=O)CN1CCN(C)CC1)c1ccccc1S2 | 80%
COc1ccc(OC)c(C2N(c3ccc(Cl)cc3)C(=O)C3CCCN32)c1 (stereo unspecified) | 98%
Cc1ccc(-n2ncc3c(=O)n(CC(=O)N4CCCc5ccccc54)cnc32)cc1C | 49%
NC(N)=Nc1ccc2[nH]c3c(c2c1)C[C@]1(O)[C@@H]2Cc4ccc(O)c5c4[C@]1(CCN2CC1CC1)[C@@H]3O5 | 8%
O=C(CN(CCc1ccccc1)C(=O)Cn1nnc(-c2cccs2)n1)NCc1ccco1 | 9%
CC1(CCC(=O)OC2CCCCC2)OCCO1 | 7%[5.75 µM]
CCOc1cc(NC(=O)C2CCCCC2)c(OCC)cc1NC(=O)c1ccco1 | 17%
Cc1ccc2cc(CN(CCCO)S(=O)(=O)c3cccc4nsnc34)c(=O)[nH]c2c1C | 132%
CC(=O)NCCNc1cc(-c2ccccc2C)ncn1 | 9%
CC(C)C[C@H]1C(=O)N2CCC[C@@H]2[C@@]2(O)O[C@](NC(=O)[C@@H]3C=C4c5cccc6[nH]cc(c56)C[C@@H]4N(C)C3)(C(C)C)C(=O)N12 | 37%[12.8 µM]
O=C1c2ccccc2C(=O)N1CCc1nc2ccccc2c(=O)n1CCCn1ccnc1 | 97%
Cc1oc(-c2ccccc2F)nc1CS(=O)(=O)CC(=O)NCCCN1CCc2ccccc2C1 | 105%
O=C(OCCN=C1NS(=O)(=O)c2ccccc21)C1CC(=O)N(c2ccc(Cl)cc2)C1 (stereo unspecified) | 33%
CCC(=NCCCO)c1c(O)n(-c2ccc(OC)cc2)c(=O)[nH]c1=O | 3%
O=c1cc(NCc2ccccc2)c2ccccc2o1 | -10%
O=C(CNS(=O)(=O)c1ccc(Br)s1)N1CCC(N2CCCCC2)CC1 | -16%
N=c1ccccn1CC(O)COc1ccccc1 (stereo unspecified) | 1%
O=C1CC(NC23CC4CC(CC(C4)C2)C3)C(=O)N1c1ccc2c(c1)OCO2 (stereo unspecified) | 0%
CCOCCN1CCN(c2c(C)c(C)nc3cc(-c4cc(OC)cc(OC)c4)nn23)CC1 | 164%
CCn1nnc(NC(=O)c2ccc(-c3ccc(Cl)cc3)o2)n1 | 16%
CN=C(Nc1cc(C)nn1CCC#N)c1ccc(F)cc1 | 8%
CCOC(=O)c1sc(NC(=O)c2cccnc2)nc1C | 1%
CCOC(=O)/C(C#N)=C1/C=CNC(=O)N1 | -14%
CCOc1ccc(C(F)(F)F)cc1NC(C)=O | 0%
CCC(C)(NC(=O)c1ccc(=O)[nH]c1)C(=O)NC1CCCC1 (stereo unspecified) | -9%
CC1Cc2ccccc2N1C(=O)CSc1nc2cc3c(cc2cc1C#N)OCO3 (stereo unspecified) | -19%
CC(=O)Nc1ccc(S(=O)(=O)NCCC(=O)OCCN2C(=O)c3ccccc3C2=O)cc1 | -6%
O=C(Nc1cccnc1)c1ccc(Br)s1 | -5%
COc1ccc(CCNC(=O)CSC2=Nc3ccccc3C3=NC(C(C)C)C(=O)N23)cc1OC (stereo unspecified) | 33%
CC(C)NC(=O)[C@@H]1C[C@H]1[C@@H](NC(=O)OCc1ccccc1)c1ccccc1 | 62%
O=C(C1CCN(S(=O)(=O)c2cccc3nsnc23)CC1)N1CCc2ccccc2C1 | 49%
CCCCCn1c(=NC(C)=O)c(C#N)cc2c(=O)n3ccccc3nc21 | 12%
CC(C)(C)NC1=CC(=O)OC12CCCCC2 | 2%
CCC(=O)OCC(=O)[C@@]1(OC(=O)CC)[C@H](C)C[C@@H]2[C@@H]3[C@H]([C@@H](O)C[C@@]21C)[C@]1(C)C=CC(=O)C=C1C[C@@H]3Cl | 98%[12.8 µM]
COc1cccc(N2CC(C)Cn3c2nc2c3c(=O)n(CCN3CCOCC3)c(=O)n2C)c1 (stereo unspecified) | 110%
NCCC[C@@H](CC(=O)N[C@@H]1CCCC[C@H]1C(=O)N[C@H](CC(=O)N[C@@H](CCC(=O)O)CC(=O)O)Cc1c[nH]c2ccccc12)NC(=O)C[C@H](Cc1ccccc1)NC(=O)[C@@H]1CNCC[C@H]1N | 129%
CCOc1cc(C(=O)N2CCC3(CC2)OCCO3)cc(OCC)c1OCC | 27%
Nc1ccc(S(=O)(=O)c2ccc(N)cc2)cc1 | -21%
CCC(=O)Nc1cccc(-c2cn3ccsc3n2)c1 | -16%
CC(=O)Nc1ccc(S(=O)(=O)NCC(C)NS(=O)(=O)c2ccc(NC(C)=O)cc2)cc1 (stereo unspecified) | -7%
CS(=O)(=O)N1CCc2cc(C(=O)N3CCCCC3)ccc21 | 15%
Cc1nnc(SCC(=O)c2c(N)n(C)c(=O)n(C)c2=O)[nH]c1=O | 0%
Cc1ccc(C2(O)CCN3CCCCC32)cc1 (stereo unspecified) | -4%
CN(C)Cc1ccccc1-c1cc(Nc2ccccc2)ncn1 | 16%
O=C1CN(C(=O)COC(=O)C23CC4CC(CC(O)(C4)C2)C3)c2ccccc2N1 | 17%

The closing 5 compounds of the section before are carried over, then new ones follow.
compound | AmpC inh no det
CS(=O)(=O)N1CCc2cc(C(=O)N3CCCCC3)ccc21 | 15%
Cc1nnc(SCC(=O)c2c(N)n(C)c(=O)n(C)c2=O)[nH]c1=O | 0%
Cc1ccc(C2(O)CCN3CCCCC32)cc1 (stereo unspecified) | -4%
CN(C)Cc1ccccc1-c1cc(Nc2ccccc2)ncn1 | 16%
O=C1CN(C(=O)COC(=O)C23CC4CC(CC(O)(C4)C2)C3)c2ccccc2N1 | 17%
CC(C#N)On1c(SC(C)C#N)nc2ccccc2c1=O (stereo unspecified) | 1%
Cc1nc2ncnn2c(C)c1CCC(=O)O | -10%
Cc1ccc2cccc(S(=O)(=O)N3CCN(c4cccc(Cl)c4)CC3)c2n1 | -4%
COc1ccc(Oc2ncc3nc(-c4cccc(C#N)c4)c(=O)n(CCC#N)c3n2)cc1 | 38%
O=C(Cn1cnc2c(oc3ccccc32)c1=O)N1CCN(c2ccccc2)CC1 | 16%
CCOC(=O)CSC1=C(C#N)C(c2ccccc2C)C2=C(CCCC2=O)N1 (stereo unspecified) | 16%
CC(C)Sc1nnc([C@@H]2CCCN2C(=O)OC(C)(C)C)o1 | 38%
Cc1ccc2c(c1)c1c3n2CCN[C@H]3CCC1 | 42%
COc1cccc(C2(O)CCN(C(=O)C3CC3)CC2)c1 | 4%
O=S(c1ccsc1)c1ccsc1 | 5%
CN1CCC[C@@H]1c1cccnc1.O=C(O)c1ccccc1O.O=C([OH2+])c1ccccc1O.O=C([OH2+])c1ccccc1O.[Mn] | -12%[5.75 µM]
CCOC(=O)c1ccc2nc(NC(=O)C(C)C)sc2c1 | -15%
CCCCOC(=O)Cn1c(=O)oc2ccc(C)cc21 | -3%
CN(C)c1ccc(NC(=O)Cn2ncn3c(cc4ccccc43)c2=O)cc1 | 11%
CC1CCN(C(C(=O)Nc2ccc3c(c2)OCO3)c2ccccc2)CC1 (stereo unspecified) | -5%
COC(=O)c1ccc(CSc2nc3c(cnn3-c3ccc(C)cc3)c(=O)[nH]2)o1 | 0%
CCS(=O)(=O)N1CCC(C(=O)NCc2ccco2)CC1 | 8%
CCN(CC)C(=O)C1=C(C)NC(=O)NC1c1c(F)cccc1Cl (stereo unspecified) | 2%
CCOC(=O)N1CCN(S(=O)(=O)c2ccc3[nH]c(=O)sc3c2)CC1 | 3%
Cc1ccc(N=C=O)cc1N=C=O | -12%
CC12C(=O)N(c3ccccn3)C(=O)C1C1C=CC2C1 (stereo unspecified) | 2%
COc1ccc(OC)c(NC(=O)C2CCCN(S(=O)(=O)c3c(C)noc3C)C2)c1 (stereo unspecified) | 84%
Nc1ccccc1S(=O)(=O)O | -7%
FC(F)(F)c1ccccc1-c1nccc(-n2ccnc2)n1 | 29%
NC(=O)c1cnn2c1NC(c1ccc(F)cc1)CC2C(F)(F)F (stereo unspecified) | 5%
COC(=O)c1[nH]c2cccc(OC)c2c1NC(=O)CN1CCN(c2cccc(OC)c2)C(C)C1 (stereo unspecified) | 154%
Cc1ccc2oc(=O)c3cnn(CC(=O)N(CCC(C)C)Cc4ccco4)c3c2c1 | -3%
CSc1nc(C2CC2)cc(-c2cccs2)c1C#N | -4%
CCOC(=O)c1cnn(-c2ncnc3sc(CC)cc23)c1N | -8%
CCOc1ccc(/C=N/n2cnnc2)cc1 | 5%
CCCNC(=O)Cc1cc(=O)[nH]c(=O)[nH]1 | 0%
COc1ccc(-n2c(=O)c(-c3cccc(C#N)c3)nc3cnc(N4CCNCC4)nc32)cc1 | 53%
Cc1cccc(C)c1NC(=O)C1CC(=O)N(C(C)C)C1 (stereo unspecified) | 9%
OC[C@@H]1O[C@@H](n2cnc3c(NC4CCCC4)ncnc32)[C@H](O)[C@H]1O | 10%
CCCN(CCC)[C@@H]1CCc2ccc(O)cc2C1 | -12%&7%&-18%
CCOC(=O)N1CCC(NC(=O)CCc2c(C)nc3c(c(C)nn3-c3ccccc3)c2C)CC1 | 4µM*[single pt active]
CCOC(=O)CSc1nc2sc3c(c2c(=O)n1CC)CC(C)(C)OC3 | 59%
CCOC(=O)CSc1nnc(CNC(=O)Cc2ccccc2)n1C | -5%
COc1ccc(C(O)c2nc3ccccc3n2C)cc1OC (stereo unspecified) | 6%
CC(=O)c1c(C)nc(-c2ccc(Cl)cc2Cl)n1O | -7%
CCCn1c(C)nc2c(NC(C)CCCN(CC)CC)nc(C)nc21 (stereo unspecified) | -5%
COc1ccc(COC(=O)C2=C(C)NC(=O)NC2c2ccc(O)c(OC)c2)cc1 (stereo unspecified) | 10%
Cc1ccc(Cl)cc1N1CCN(CC(=O)Nc2ccc3[nH]c(=O)[nH]c3c2)CC1 | -12%
O=C(C(Cc1ccccc1)NS(=O)(=O)c1ccc(F)cc1)N1CCC2(CC1)OCCO2 (stereo unspecified) | 23%
C/C(=C1/SC(=S)N(CCC(=O)O)C1=O)c1ccc(O)cc1 | -15%
C=CCn1c(SCC(=O)OCc2ccccc2)nc2c1c(=O)n(C)c(=O)n2C | 35%
c1coc(CNCC2OCCc3ccccc32)c1 (stereo unspecified) | -2%
CC(C)c1nc(SCC(=O)N2CCN(c3ccccc3)CC2)c2c(=O)n(C)c(=O)n(C)c2n1 | 24%
Cc1nc2nc(Cc3ccccc3)[nH]n2c(=O)c1Cl | -5%
CCn1c(=N)n(CC(=O)C23CC4CC(CC(C4)C2)C3)c2ccccc21 | 39%
CCC(=O)N(Cc1cc(=O)[nH]c2ccccc12)c1cccc(C)c1 | 18%
CCCSc1nc2c(cnn2-c2ccc(Cl)cc2)c(=O)[nH]1 | -23%
COc1ccc2cc3cc(C(=O)NCc4ccccn4)oc3nc2c1 | 49%
COc1nc(Nc2ccc(-c3nc4ccccc4o3)cc2)nc(N2CCOCC2)n1 | 84%
CCC(=O)Oc1ccc(-c2nc(-c3cccnc3)no2)cc1 | 22%
COc1ccc(C(=O)n2nc(-c3ccccc3)nc2N)cc1OC | 18%
CCCCNC(=O)OCCNC(=O)Oc1cccc(C)c1 | 11%
COc1ccc(S(=O)(=O)Nc2ccc(C)cc2)cc1OC | -12%
COCCNc1ncnc2ccc(-c3ccccc3C(F)(F)F)cc12 | 68%
Cc1cccc(NC2=NC(C)(C)N=C(N)N2)c1C | -10%
O=C(Cn1ccc(=O)[nH]c1=O)Nc1ccc(C(=O)O)c(O)c1 | -7%[5.75 µM]

3 structures out of the list, ordered by molecular weight, low to high.
compound | AmpC inh no det
Cc1cccc(NC2=NC(C)(C)N=C(N)N2)c1C | -10%
CCC(=O)Oc1ccc(-c2nc(-c3cccnc3)no2)cc1 | 22%
CCC(=O)N(Cc1cc(=O)[nH]c2ccccc12)c1cccc(C)c1 | 18%

Individual results from above.
For AmpC inh no det, `CCC(=O)Oc1ccc(-c2nc(-c3cccnc3)no2)cc1` shows 22%
For AmpC inh no det, `Cc1nc2nc(Cc3ccccc3)[nH]n2c(=O)c1Cl` shows -5%
For AmpC inh no det, `CCn1c(=N)n(CC(=O)C23CC4CC(CC(C4)C2)C3)c2ccccc21` shows 39%
